PINK1 modulator: modulators of PINK1 expression | PINK1 immunofluorescence, high-content cytometry, 24 h | Potency, µM (doses to about 76.6 µM), inactives show top-dose activation (PINK1 increase), usual class: activators | hit rate 0.2% among 410,000; active = well fitted activation curve with a large enough effect; inconclusive = small, poorly fitted or top-dose-only effect; inactive = flat fitted curve, though single readings scatter; cell line not stated here;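 also: potency is read from the fitted curve at half-maximal effect; % of control where 0% means no effect; nearly all actives have a fitted effect of over 65% in size; a mitochondrial uncoupler was the plate control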
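Cells are seeded, rested 12 hours, then given compound at five concentrations or DMSO for 24 hours. After fixation, blocking and antibody staining, PINK1 amount and mitochondrial localization are scored; CCCP serves as control.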
Six1-Eya2 inh: blocks human Six1 binding to Eya2 | Q15475+O00167 | AlphaScreen GST-Six1/His-Eya2 binding, biochemical; active compounds read low; control for the full effect not named in the record | activity change, % (concentration not given with the values) | hit rate 0.56% among 360,000; in the data active = activity change below about -65%; inconclusive = about -30% to -65%; inactive = above about -30%; also: % is scaled to controls: 0 for no effect and ±100 for the full control effect
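GST-Six1 + His-Eya2 (5X stock: 250/500 nM); Tris pH 8.0, 300 mM NaCl, 0.05% BSA, 0.02% Tween 20; GSH donor/Ni acceptor beads; 1 h 37 °C dark; AlphaScreen readout.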
TRPML1 agonist: activates the human TRPML1 channel; TRPML1-expressing cells, Ca2+ dye fluorescence, FDSS; host cell line not named in the record; reference of the full effect not given here; activation, % (test concentration not listed); hit rate 0.12% among 410,000; in the data active = activation above about 50%; inconclusive = about 30% to 50%; inactive = below about 30%; also: 0% is about no effect; the text of the record puts the active cut at 80%
Target sequence (Q9GZU1 whole entry, looked up): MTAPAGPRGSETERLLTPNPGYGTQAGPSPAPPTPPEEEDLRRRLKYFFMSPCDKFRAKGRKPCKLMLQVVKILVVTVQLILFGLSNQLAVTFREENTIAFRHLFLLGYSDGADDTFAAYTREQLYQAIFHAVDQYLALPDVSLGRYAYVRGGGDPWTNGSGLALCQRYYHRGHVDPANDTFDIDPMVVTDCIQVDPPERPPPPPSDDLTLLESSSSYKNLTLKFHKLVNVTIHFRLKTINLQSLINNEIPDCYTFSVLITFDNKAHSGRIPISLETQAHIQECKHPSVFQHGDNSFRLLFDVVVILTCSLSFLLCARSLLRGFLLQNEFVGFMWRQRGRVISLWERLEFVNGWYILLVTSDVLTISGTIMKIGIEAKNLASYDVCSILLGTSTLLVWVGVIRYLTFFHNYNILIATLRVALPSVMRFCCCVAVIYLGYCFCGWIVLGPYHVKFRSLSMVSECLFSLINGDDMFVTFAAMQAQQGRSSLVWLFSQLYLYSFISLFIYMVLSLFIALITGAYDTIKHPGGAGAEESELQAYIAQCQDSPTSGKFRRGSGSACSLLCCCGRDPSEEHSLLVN
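Kinetic FDSS Ca2+ read in Tet-induced TRPML1-DL cells (ABD Ca8 dye plus quencher, 45-90 min RT loading): baseline, then compound, then 110 s agonist window; EC80 agonist 54-4 at 4uM final added afterwards for a 110 s antagonist window.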
D2 potentiator: positive allosteric modulators of human D2 dopamine receptor. DiscoveRx D2 beta-arrestin cells, luminescence, 90 min; 100% = 57 uM dopamine signal. P14416. hit rate 0.23% among 360,000. potentiation, % (no concentration beside the values); active = potentiation of 50% or more; inconclusive = 30% to 50%; inactive = 30% or less;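 also: compound concentration not given in the record; tested on top of an EC20 dose of dopamine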
Target sequence (P14416 whole entry, looked up): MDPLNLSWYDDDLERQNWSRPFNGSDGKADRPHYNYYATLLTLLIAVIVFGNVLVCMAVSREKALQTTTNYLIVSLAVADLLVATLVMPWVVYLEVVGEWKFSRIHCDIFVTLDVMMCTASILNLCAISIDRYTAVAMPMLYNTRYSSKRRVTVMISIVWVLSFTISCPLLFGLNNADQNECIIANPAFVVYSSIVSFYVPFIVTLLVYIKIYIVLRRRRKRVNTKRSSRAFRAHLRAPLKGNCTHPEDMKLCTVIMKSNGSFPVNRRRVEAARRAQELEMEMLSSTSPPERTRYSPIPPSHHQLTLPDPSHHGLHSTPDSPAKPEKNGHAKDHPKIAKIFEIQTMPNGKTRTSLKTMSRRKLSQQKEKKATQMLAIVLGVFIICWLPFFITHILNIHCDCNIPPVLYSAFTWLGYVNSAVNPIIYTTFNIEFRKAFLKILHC
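D2 cells co-treated with compound plus 50 nM dopamine (EC20) for 90 min at 37 deg C to detect potentiation. Beta-arrestin recruitment was read as enzyme-fragment luminescence after 1 h at ambient temperature. Full response was set by 57 uM dopamine.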
CtBP-E1A inh: blocks the CtBP interaction with E1A | activity change, % (concentration not given with the values) | hit rate 0.49% among 340,000 | AlphaScreen GST-E1A/His-CtBP binding, 1536-well; active compounds read low; control for the full effect not named in the record; in the data active means activity change below about -65%; inconclusive means about -30% to -65%; inactive means above about -30%; also: % is scaled to controls: 0 for no effect and ±100 for the full control effect
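GST-E1A and His-tagged CtBP (125 nM each as 5X stock) were preincubated with pin-transferred compound for 2 h at 37 °C in the dark, then glutathione donor and nickel acceptor beads were added for 1 h before AlphaScreen reading.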
D2 agonist: human D2 receptor agonism in beta-arrestin assay; P14416; DiscoveRx PathHunter D2 beta-arrestin, luminescence, 90 min; 100% = 57 uM dopamine signal; activation, % (test concentration not listed); hit rate 0.084% among 360,000; AID 624465; in the data active = activation above about 40%; inconclusive = about 15% to 40%; inactive = below about 15%; also: compound concentration not given in the record; the text of the record calls up to 30% inactive
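Agonist mode: compounds alone added to overnight-plated D2 PathHunter cells for 90 min at 37 C, with 57 uM final dopamine (EC100) defining full response. Beta-arrestin recruitment detected by chemiluminescent reagent, read after 1 h at ambient temperature.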
Active calls of the source: *; ? = inconclusive; nt = no result given; [ ] = remark or other dose.

Values run as follows: CtBP-E1A inh, D2 potentiator, Six1-Eya2 inh, D2 agonist, PINK1 modulator, TRPML1 agonist
> Cc1c(C(=O)O)[nH]c2c1C(=O)CC(c1ccccc1)C2 (configuration not stated)
    0, -13, 2, 0.7, -2.4%, 0.8
> Nc1ccc(Oc2cccc(Oc3ccc(N)cc3)c2)cc1
    -18, -1, -14, -2.2, 0.4%, -0.6
> N#Cc1ccsc1NC(=O)CCc1ccccc1
    1, -1, -2, 0.8, 9.9%, 0.3
> CC(=O)NC(CC(C)C)C(=O)NC(Cc1ccccc1)C(=O)CCl (configuration not stated)
    4, -6, -4, -4.7, 0.7%, 0.0
> Cc1cc(C)c2ccc3c(C)c(C)nc3c2[nH]1
    -6, -4, 3, -0.2, 4.8%, 2.2
> O=S1(=O)N(Cc2ccccc2F)CCCN1Cc1c(F)cccc1Cl
    5, -3, 17, 3.7, 1.9%, 1.4
> O=C(c1cc2cc(Cl)ccc2[nH]1)N1CCc2ccccc2C1
    nt, -5, -1, -1.7, 5.8%, 2.5
> CC(=O)N/C(=C\c1ccccc1)C(=O)NC(C)C(=O)O (configuration not stated)
    -1, -3, 4, -5.7, 0.3%, 0.1
> CCOC1=C2[C@@H](CN(S(=O)(=O)c3ccc(C)cc3)[C@H]2c2ccccc2)[C@H]2C(=O)N(Cc3ccccc3)C(=O)[C@H]2C1
    1, -3, 5, 6.2, 0.1%, -0.1
> Nc1nc2nccc(-c3ccc(Cl)cc3)n2n1
    0, 8, ?, -4.4, -1.9%, -0.5
> CC(=O)Nc1ccc(S(=O)(=O)NNC(=S)NCC2CCCO2)cc1 (configuration not stated)
    -15, -12, 0, -4.1, 5.2%, 0.3
> CCC(C)NCC(=O)Nc1sc2c(c1C(N)=O)CCC2 (configuration not stated)
    -2, -9, -1, -4.8, -0.5%, -0.5
> COc1ccc(CCNC(=O)C2CC(=O)N(c3ccc(C(C)(C)C)cc3)C2)cc1OC (configuration not stated)
    -6, -2, 3, -4.3, 0.2%, 0.1
> O=C(CCCNC(=O)/C(=C\c1ccccc1F)NC(=O)c1ccccc1)OCc1ccccc1
    2, -23, -1, -0.6, nt, 1.2
> Cc1ccccc1-c1nc2c3ccccc3nc(=S)n2[nH]1
    -2, -6, 6, -21, 2.5%, nt
> CCN1C(=O)[C@H]2[C@H]3CN=C(SCc4ccc(C(=O)OC)cc4)N3[C@@](CC)(C(=O)OC)[C@H]2C1=O
    3, -17, 0, 0.4, -0.6%, 1.0
> Cc1ccc(C2=NS(=O)(=O)N(C)C(C(=O)NCc3ccccn3)=C2)cc1
    1, -5, 1, 5.9, 0.2%, 0.4
> CCOc1cc(N2CCOCC2)c(OCC)cc1NC(=O)COC(=O)c1cc2ccccc2cc1O
    0, 3, 3, -1.2, 12%, -0.1
> Cc1nn2c(SCC(=O)c3cccs3)cc(C(C)(C)C)nc2c1-c1ccccc1
    5, 9, -1, 0.1, 6.3%, 0.9
> Cc1cc(/C=N/NC(=O)c2cccc([N+](=O)[O-])c2)c(C)n1-c1ccccc1
    ?, -11, -23, -3.4, -0.2%, 1.6
> O=[N+]([O-])c1cccc2c1ccc1ncccc12
    0, -9, -7, -0.5, -0.6%, -1.6
> Cc1cc(C(=O)NC2CCCc3c2cnn3-c2ccc(C)c(C)c2)nc(C)n1 (configuration not stated)
    -11, -10, -8, -3.9, 2.8%, 1.3
> CNCCCc1[nH]nc(N)c1C#N
    4, -21, 4, -0.9, -0.9%, 0.5
> CN(C)CCOC1c2ccccc2CCc2ccc3ccccc3c21 (configuration not stated)
    -14, -15, -17, -1.5, -3.8%, 4.0
> Cn1c(=O)c2[nH]c(NN=Cc3cccc(Br)c3)nc2n(C)c1=O
    -21, 10, -12, ?, 4.1%, 0.4
> CC1(C)CC2(CC(C)(C)N1)OC(=O)N1CCc3ccccc3C12C (configuration not stated)
    0, -1, 3, 4.0, 0.4%, 0.3
> Cc1cc(C)cc(NC(=O)C2COc3ccccc3O2)c1 (configuration not stated)
    1, -10, 13, -2.2, 1.0%, 0.4
> CC1(C)Cc2c(c(N3CCCCC3)[nH]c(=S)c2C#N)CS1
    -3, 9, -7, -4.9, 6.3%, -0.7
> Oc1ccc(-c2nccc(-c3cccs3)n2)cc1
    -19, -19, -12, 0.3, -0.3%, 2.1
> COc1cccc(NC(=O)CN(c2cccc(OC)c2)S(C)(=O)=O)c1
    3, 1, -9, -3.6, 1.9%, 0.5
> Brc1csc2ncccc12
    4, -12, 10, -2.9, 0.0%, -0.5
> O=C(CNS(=O)(=O)c1ccccc1)OCC(=O)c1ccc(F)cc1
    -26, -6, -7, -4.0, -0.9%, 0.0
> COCCCn1c(SCC(=O)c2c(N)n(C3CC3)c(=O)[nH]c2=O)nnc1-c1ccccc1Cl
    14, -5, -2, -2.2, 1.4%, -0.2
> CC1CCCCN1C(=O)CCn1c(=O)oc2ccccc21 (configuration not stated)
    -17, -2, 0, -1.4, 0.7%, -0.4
> C[C@H](CO)N1C[C@H](C)[C@@H](CN(C)Cc2ccccc2)OCc2cnnn2CCCC1=O
    0, -5, 13, 1.2, -1.2%, 0.6
> O=[N+]([O-])c1cccc(COc2ccccc2CO)c1
    4, nt, -7, nt, 2.5%, -0.7
> Cc1oc(-c2cccc(Cl)c2)nc1CN1CCC(C(=O)NC2CC2)CC1
    9, -2, 2, ?, 1.2%, 0.2
> Cc1ccc(C(=O)O)cc1[N+](=O)[O-]
    2, -3, -3, -2.1, 1.6%, -0.7
> Cn1cc(CCC(=O)NCc2ccc3c(c2)OCO3)c2ccccc21
    -3, -7, -3, -0.2, 8.4%[38.3 µM], 0.7
> CC(=O)Nc1ccc(C(=O)NN2C(=O)NC3(CCCCC3)C2=O)cc1
    9, -3, 1, 10, 2.4%, 0.3
> COC(=O)N/N=C/c1cn(CCCOc2ccc(C)cc2)c2ccccc12
    -8, -9, -16, 5.4, 5.4%, 3.1
> O=C(N/N=C/c1coc2ccccc2c1=O)c1cc(Br)c(O)c(Br)c1
    0, -20, 2, -1.7, 0.1%, -0.6
> CCCc1nc2c(C)cc(Br)cn2c1Cc1ccc(C)cc1
    24, -7, 10, -4.2, 1.2%, 0.9
> NC(=O)[C@@H]1CCCNc2c(I)cc([N+](=O)[O-])cc2C(=O)N[C@@H](Cc2ccccc2)C(=O)N[C@@H](Cc2cnc[nH]2)C(=O)N1
    -7, 1, -13, 0.1, 0.0%, 1.0
> OC(c1ccccc1)(c1nc(-c2cccc(F)c2)cs1)C(F)(F)F (configuration not stated)
    17, -2, 7, 8.5, 11%, 0.9
> CC(=O)Nc1ccc(S(=O)(=O)N2CCCN(S(=O)(=O)c3ccc(C)cc3)CC2)cc1
    -3, -2, -1, 1.2, ?, -0.5
> CCOC(=O)c1csc(CCNC(=O)c2oc3c(Cl)cc(C)cc3c2C)n1
    0, 4, 4, -4.2, 1.5%, -0.6
> COc1ncnc2sc(-c3ccccc3)cc12
    18, -11, 11, -0.3, -3.8%[38.3 µM], 5.7
> Cc1nc(-c2ccc(Cl)cc2)sc1C1(C)CC(c2cccc([N+](=O)[O-])c2)=NO1 (configuration not stated)
    -12, 0, -19, 5.5, 0.1%, -0.3
> COc1cccc(CC2(CO)CCCN(Cc3cn[nH]c3-c3ccc(F)cc3)C2)c1 (configuration not stated)
    -3, -14, -5, -4.6, 4.3%, 0.4
> O=C1CC(N2CCOCC2)C(=O)N1c1cccc(Cl)c1 (configuration not stated)
    2, -34, 0, -1.7, 0.2%, 0.2
> CCCCC(=O)Nc1ccc(NC(=O)c2cccnc2)cn1
    3, 7, -3, -2.4, 0.2%, -0.6
> COc1ccc(CNC(=O)c2cc3c(s2)CS(=O)C3)cc1 (configuration not stated)
    5, -5, 2, -5.5, 4.0%, 1.4
> O=C(c1cc(COc2ccc(F)cc2F)on1)N1CCN(C2CCCC2)C(=O)C1
    3, 0, -2, 3.3, 5.8%, 0.2
> O=C1CC(c2ccccc2)C(C(=O)O)N1 (configuration not stated)
    9, -3, -2, -0.8, -0.1%, 0.0
> Cc1ccc(NC(=O)c2oc3ccc(Br)cc3c2C)cc1S(=O)(=O)N1CCOCC1
    2, -11, -7, -0.3, 9.4%, 1.1
> CC(=O)c1ccc(NC(=O)c2ccc(CNc3c(N4CCCC4)c(=O)c3=O)cc2)cc1
    0, -4, 17, 0.1, 0.8%, 0.4
> CCc1cccc2c(C=C(C#N)C#N)cn(CC(=O)N3CCCCCC3)c12
    -5, -17, 2, -3.1, nt, 0.6
> COc1ccc(OCC(O)CNC(=O)c2ccccc2C(=O)O)cc1 (configuration not stated)
    3, -12, 4, -3.6, -0.8%, 0.1
> N=c1n(CCN2CCCCC2)c2ccccc2n1CC(O)c1ccco1 (configuration not stated)
    3, -7, 0, -4.3, -0.8%, -0.4

Reprinted at random: 2 entries already listed, in no set order.
Values run as follows: CtBP-E1A inh, D2 potentiator, Six1-Eya2 inh, D2 agonist, PINK1 modulator, TRPML1 agonist
> Cc1c(C(=O)O)[nH]c2c1C(=O)CC(c1ccccc1)C2 (configuration not stated)
    0, -13, 2, 0.7, -2.4%, 0.8
> CCOC1=C2[C@@H](CN(S(=O)(=O)c3ccc(C)cc3)[C@H]2c2ccccc2)[C@H]2C(=O)N(Cc3ccccc3)C(=O)[C@H]2C1
    1, -3, 5, 6.2, 0.1%, -0.1

As entered above.
Value for `Brc1csc2ncccc12` under D2 agonist: -2.9
Value for `NC(=O)[C@@H]1CCCNc2c(I)cc([N+](=O)[O-])cc2C(=O)N[C@@H](Cc2ccccc2)C(=O)N[C@@H](Cc2cnc[nH]2)C(=O)N1` under TRPML1 agonist: 1.0

New compounds follow:
Values run as follows: CtBP-E1A inh, D2 potentiator, Six1-Eya2 inh, D2 agonist, PINK1 modulator, TRPML1 agonist
> COc1ccccc1CNC(=O)COC(=O)Cc1cccs1
    -1, -29, -8, -3.1, 3.9%, -1.0
> COc1cc(C2C(C#N)=C(N)N(Nc3ccccc3)C3=C2C(=O)CC(C)(C)C3)ccc1OCc1cccc(F)c1 (configuration not stated)
    -22, -37, -29, 1.7, -0.7%, 2.5
> COc1ccc(N2CCN(Cc3cc4c(cc3Br)OCCO4)CC2)cc1
    -27, 9, ?, -5.6, 2.9%, -1.2
> O=C(O)c1cccc2c1C(=O)N(CC1CCCO1)C2 (configuration not stated)
    13, -4, 6, 3.1, -0.9%, 0.2
> O=C(Nc1ccccc1)C1Cc2c(-c3ccc4c(c3)OCO4)ccnc2O1 (configuration not stated)
    -14, 0, -6, -2.3, 1.5%, -0.4
> COc1ccccc1-c1csc(C(C)(O)c2cccc(F)c2)n1 (configuration not stated)
    12, -2, 4, 1.5, 11%, -0.2
> Cc1ccc(S(=O)(=O)N2CC[C@H]3[C@@H](C2)C(=O)C[C@@H](c2ccccc2)N3S(=O)(=O)c2ccc(C)cc2)cc1
    3, -2, -5, -1.4, 0.8%, 18
> CN(C)Cc1ccccc1Cc1ccccc1
    -7, -5, 7, -0.6, 2.1%, 1.1
> Cc1ccc(-c2csc(Nc3ccccn3)n2)cc1
    -5, -3, -11, 2.7, 5.6%, 0.3
> Cc1ccccc1C(=O)NCC(=O)O
    nt, -8, 4, 5.2, -0.4%, 0.3
> CC(=O)Nc1cccc(NC(=O)c2sc3ncn(CC(=O)N4CCCCC4)c(=O)c3c2C)c1
    2, 0, 5, -1.8, 3.1%, 0.7
> COc1ccccc1-c1nnc(NC(=O)C2=COCCO2)o1
    -11, -10, -24, -0.3, 2.6%, 2.1
